# VDR inhibitor – inhibitors of human vitamin D receptor. P11473. VDR-SRC2-3 peptide fluorescence polarization, 2 h. 0.93% of 400,000 active. Potency, µM, for the others: max response, negative = inhibition, most hits filed as inhibitors; active means well fitted inhibition curve with a large enough effect; inconclusive means small, poorly fitted or top-dose-only effect, or another doubt; inactive means no such curve, though single readings can be large or run the other way; further: series mostly up to about 120 µM
# Target sequence (P11473 whole entry, looked up): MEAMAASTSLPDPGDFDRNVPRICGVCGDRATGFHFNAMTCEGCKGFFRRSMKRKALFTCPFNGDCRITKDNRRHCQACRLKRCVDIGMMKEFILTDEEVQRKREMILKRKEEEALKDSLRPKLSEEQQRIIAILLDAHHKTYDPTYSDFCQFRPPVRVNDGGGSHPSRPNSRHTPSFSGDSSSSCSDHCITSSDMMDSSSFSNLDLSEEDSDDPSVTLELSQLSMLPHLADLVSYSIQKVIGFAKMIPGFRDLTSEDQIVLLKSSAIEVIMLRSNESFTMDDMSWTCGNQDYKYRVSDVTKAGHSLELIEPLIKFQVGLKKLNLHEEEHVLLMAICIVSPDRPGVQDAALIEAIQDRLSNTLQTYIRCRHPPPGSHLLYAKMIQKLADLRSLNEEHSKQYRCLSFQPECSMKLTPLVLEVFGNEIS
#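 The screen uses fluorescence polarization to detect compounds that interfere with recruitment of the SRC2-3 coactivator peptide to VDR; plates are read after 2 h at room temperature.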
# Numbers without * were called inactive; ? = inconclusive; & = joins results of further samples; [ ] = remark or other dose. On the % scale 0 is the no-effect control and ±100 the full control effect; potency means the concentration at half of the fitted maximal effect. The list is partial. The share of hits here may be higher or lower than overall.
# The first 7 compounds as a preview:
SMILES,VDR inhibitor
CCCSc1ccc([C@@H]2[C@H]3C(=O)N(C)C(=O)[C@H]3[C@]3(C(=O)OC)CCCN23)cc1OC,1.5%
CNC(=O)c1nnn(Cc2ccccc2)c1NC(C)=O,7.2%
O=C(NCCCl)Nc1cc([N+](=O)[O-])ccc1Cl,13.3%
Cc1ccc(N=Nc2ccc(O)c(P(=O)(c3ccccc3)c3ccccc3)c2)cc1,-8.6%
CCN1CCN(C(=O)c2cccc(OC3CCN(S(=O)(=O)N(C)C)CC3)c2)CC1,2.2%
CCOC(=O)C1=C(N)c2ccccc2CC1C(C)C (stereo unspecified),19.9%
Cc1ccc(NC(=O)COC(=O)[C@H](C)N2C(=O)C3CC=CCC3C2=O)cc1S(=O)(=O)N(C)C (stereo partly specified),-7.0%

# The listing (from the top)
SMILES,VDR inhibitor
CCCSc1ccc([C@@H]2[C@H]3C(=O)N(C)C(=O)[C@H]3[C@]3(C(=O)OC)CCCN23)cc1OC,1.5%
CNC(=O)c1nnn(Cc2ccccc2)c1NC(C)=O,7.2%
O=C(NCCCl)Nc1cc([N+](=O)[O-])ccc1Cl,13.3%
Cc1ccc(N=Nc2ccc(O)c(P(=O)(c3ccccc3)c3ccccc3)c2)cc1,-8.6%
CCN1CCN(C(=O)c2cccc(OC3CCN(S(=O)(=O)N(C)C)CC3)c2)CC1,2.2%
CCOC(=O)C1=C(N)c2ccccc2CC1C(C)C (stereo unspecified),19.9%
Cc1ccc(NC(=O)COC(=O)[C@H](C)N2C(=O)C3CC=CCC3C2=O)cc1S(=O)(=O)N(C)C (stereo partly specified),-7.0%
CC(CCc1ccccc1)NC(=O)c1cccc([N+](=O)[O-])c1 (stereo unspecified),-4.5%
Cc1ccc(OCCSc2ncnc3sc(C)c(C)c23)cc1C,0.6%
O=C(CN1C(=O)CCc2cc(S(=O)(=O)N3CCOCC3)ccc21)NCc1ccccc1,5.9%
OCCNc1nc2ccccc2nc1NCCO,2.7%
COc1ccc(OC)c(/C=N/NC(=O)Cn2ccnc2C)c1,-12.6%
O=C(Nc1nnc(CCN2CCCCC2)s1)c1ccccc1Cl,15.0%
O=C(CN1CCN(C(c2ccccc2)c2ccccc2)CC1)N1CCOCC1,0.5%
O=S(=O)(NC1=NCCCCC1)c1ccc(Cl)cc1Cl,1.3%
CN1CCN(c2nc(Nc3ccc(O)cc3)nc3ccccc23)CC1,-5.3%
O=S(=O)(NCc1ccccc1)[C@@H]1CC2C=CC1C2 (stereo partly specified),-2.8%
CC(C)(C)OC(=O)N[C@@H](C(=O)OC(C)(C)C)c1ccc(Br)cc1,0.0%
COc1ccc(CNc2nc(-c3ccco3)nn2C(=O)c2ccccc2C)cc1,-6.1%
O=C(O)c1ccc(-c2ccccc2)[nH]c1=O,?

# An excerpt from above in order of the VDR inhibitor value, smallest number first.
SMILES,VDR inhibitor
COc1ccc(OC)c(/C=N/NC(=O)Cn2ccnc2C)c1,-12.6%
Cc1ccc(NC(=O)COC(=O)[C@H](C)N2C(=O)C3CC=CCC3C2=O)cc1S(=O)(=O)N(C)C (stereo partly specified),-7.0%
CN1CCN(c2nc(Nc3ccc(O)cc3)nc3ccccc23)CC1,-5.3%
OCCNc1nc2ccccc2nc1NCCO,2.7%

# New compounds follow
SMILES,VDR inhibitor
CCOc1ccc(NC(=S)N2CCCCCC2)cc1,3.2%
CC(C)[C@@H](C(=O)NCc1ccco1)N1C(=O)N2CCc3c([nH]c4ccccc34)[C@@]2(C)C1=O,-13.3%
C=C1CCC2[C@](C)(CO)C(O)CC[C@]2(C)C1C/C=C1/C(=O)OCC1O (stereo partly specified),-2.3%
Cc1noc(C)c1S(=O)(=O)NC1CCN(Cc2ccccc2)CC1,-7.6%
C/C(=N\NC(=O)c1ccccn1)c1ccc(Cl)cc1,7.7%
COc1ccc(-c2n[nH]c3c2C(c2ccc(O)cc2)N(c2ccc(Br)cc2)C3=O)cc1 (stereo unspecified),-21.6%
O=C(CSc1ncnc2ccccc12)NCCCO,0.6%
Oc1c(Br)cc(Br)cc1-c1nc2ccccc2s1,-3.2%
CSc1ccc(/C=C(/NC(=O)c2ccc(C)cc2)C(=O)Nc2cccc(C)c2)cc1,6.4%
CCOC(=O)C1(CC2CCCCO2)CCN(Cc2nccn2-c2cccc(C)c2)CC1 (stereo unspecified),10.0%
CC(C)n1c2ccccc2c2nnc(SCC(=O)Nc3ccccc3C(=O)O)nc21,3.9%
CCc1ccc(NC(=O)C2CCC(CNS(=O)(=O)c3ccc4c(c3)CC(C)N4C(C)=O)CC2)cc1 (stereo unspecified),9.2%
O=C(c1ccc(NS(=O)(=O)c2ccc(Cl)cc2)cc1)N1CCOCC1,20.3%
Cc1ccc(C(=O)CSc2nnc(COc3ccccc3)o2)cc1,7.1%
Cc1nnc(NC(=O)C2CC(=O)N(c3ccccc3)C2)s1 (stereo unspecified),-6.5%
CCOC(=O)c1[nH]c2ccc(OC)cc2c1NC(=O)CN1CCSCC1,2.3%
COc1ccccc1NC(=O)CCn1nc(-c2ccccc2)c2ccccc2c1=O,56.2µM*
CC(NC(=O)c1cccc2ccccc12)c1ccc2c(c1)CCCC2 (stereo unspecified),-20.9%
NC(=O)c1ccc(NC(=O)CCCNC(=O)c2ccc(Cl)cc2)cc1,13.8%
Cc1ccc2[nH]c(=O)c(COC(=O)c3cccs3)cc2c1,-10.5%
O=C(CSc1ccc(Cl)cc1)Nc1nnc(-c2cccc([N+](=O)[O-])c2)s1,-9.4%
COc1ccccc1CNC(=O)COc1ccc(C)nc1[N+](=O)[O-],-14.5%
CCOc1ccccc1NC(=O)NS(=O)(=O)c1ccc(C)cc1,4.2%
CN1CC=C2C(C#N)=C(N)C(C#N)(C#N)C(Cc3ccccc3)C2C1 (stereo unspecified),-6.9%
CCOC(=O)CC(NC(=O)CCc1c(C)nc2c(-c3ccccc3)c(C)nn2c1C)c1ccc(C)cc1 (stereo unspecified),-2.2%
O=S(=O)(NCc1ccc(Cl)cc1)c1cccc2cccnc12,-10.5%
N#CC1(NC(=O)CSc2n[nH]c(-c3ccccc3)n2)CCCCC1,1.6%
O=C(c1ccc(F)cc1)N1CCCC(C(=O)N2CCN(c3ccccc3)CC2)C1 (stereo unspecified),-8.2%
O=S(=O)(Nc1ccc2c3c(cccc13)CC2)c1ccc(F)cc1,4.9%
O=C1C(=O)c2c(C(=O)c3ccccc3)coc2-c2ccccc21,3.16µM*
OC1CCCN(Cc2ccc3c(c2)Cc2ccccc2-3)C1 (stereo unspecified),-9.6%
CCCCCCCCC(=O)NNC(=O)c1c(O)c2ccccc2n(CCC)c1=O,8.9%
CN(CC(=O)NCc1ccc(F)cc1)S(=O)(=O)c1ccc2[nH]c3c(c2c1)CCCC3,13.0%
CN(C)CCCNC(=S)N1CCn2c(nc3ccccc32)C1,-9.9%
Cc1ccc(C(=O)Nc2c(C(=O)NCc3ccc(Cl)cc3)sc3nc(C)cc(C)c23)cc1,-7.6%
CC(CCN1CCN=C1Nc1ccccc1)c1ccccc1 (stereo unspecified),-5.3%
CC1CN(S(=O)(=O)c2cccc(C(F)(F)F)c2)CN1C(=O)N1CCOCC1 (stereo unspecified),2.2%
CC(C)c1ccc(NC(=O)C(Cc2ccccc2)n2cccc2)cc1 (stereo unspecified),7.7%
COCCC(=O)N1CCC(Oc2ccc(C(=O)NCCc3ccccn3)cc2)CC1,37.3%[activator]
Cc1ccc(-c2csc3nc[nH]c(=S)c23)cc1C,-18.9%
NC(=O)COC(=O)c1sc2ccccc2c1Cl,4.1%
CCOC(=O)C1CCCN(C(=O)c2ccc3c(c2)N(Cc2ccccc2)C(=O)c2ccccc2S3=O)C1 (stereo unspecified),2.4%&-25.0%
Cc1ccc(NC(=S)NNC(=S)Nc2cccc(C(F)(F)F)c2)cc1,28.2µM*
CCOC(=O)c1ccccc1NC(=O)C1CC(=O)N(C2CCCC2)C1 (stereo unspecified),8.0%
Cc1cc(/C=C2/SC(=O)N(CC(=O)N3CCCC3)C2=O)ccc1N1CCOCC1,10.5%
O=C(CCc1ccccc1)n1nc(-c2ccco2)nc1SCc1ccccc1,-29.4%
COc1cccc(-c2csc(N3CCN(C(=S)Nc4ccccc4Cl)CC3)n2)c1,6.7%
CCN(CC(=O)Nc1c(F)cccc1F)C(=O)c1ccc(Cl)c(S(=O)(=O)N2CCCCC2)c1,5.7%
COc1ccccc1CNC(=O)[C@H](C)N1C(=O)N2CCc3c([nH]c4ccccc34)[C@@]2(C)C1=O,-0.6%
CCOC(=O)c1ccc(NC(=O)CSc2nccn2C)cc1,-3.4%
COC(=O)CS(=O)(=O)c1nnc([C@H](Cc2ccccc2)NC(=O)OC(C)(C)C)o1,?
O=C(COC(=O)c1cc[n+]([O-])cc1)Nc1ccc(Cl)cc1[N+](=O)[O-],9.8%
CCOc1ccc(NC(=O)CC2C(=O)N(C)C(=S)N2Cc2ccc3c(c2)OCO3)cc1 (stereo unspecified),-12.1%
CCCn1c(CCC(=O)Nc2cc(Cl)c(OC)cc2OC)nc2cccnc21,-20.0%
OC(CN1CCOCC1)CN(c1ccccc1)c1ccccc1 (stereo unspecified),-4.4%
CCOC(=O)N1CCC(NC(=O)c2cc(COc3ccc(F)cc3Cl)on2)CC1,-10.4%
Cc1ccccc1N1CCN(C2CCCN(C(=O)c3cc[n+]([O-])cc3)C2)CC1 (stereo unspecified),-9.3%
CC(=O)c1cccc(NS(=O)(=O)c2ccc3[nH]c4c(c3c2)CCCCC4)c1,21.2%
COc1cccc(N2CCN(C(=O)CCc3c(C)nc4c(c3C)c(=O)n(C)c(=O)n4C)CC2)c1,?
CC(C)(C)c1ccc(-c2cc(-c3ccccc3O)[nH]n2)cc1,-3.2%

# (list continues)
SMILES,VDR inhibitor
O=C(COC(=O)Cc1ccsc1)Nc1ccccc1,1.9%
COc1ccccc1CCNC(=O)Nc1cccc([N+](=O)[O-])c1,-6.3%
CCOc1ccc(C2C(C#N)=C(N)SC(N)=C2C#N)cc1OCC,-27.7%
COC(=O)Cc1ccc(NC(=S)NCc2ccccc2OC)cc1,-3.8%
COc1ccccc1C(=O)NCCC(=O)NCCc1ccccc1,-2.3%
CCCN(CCC)CCNC(=O)c1cc(-c2ccc(Br)s2)nc2ccccc12,-1.0%
O=C(C1CCN(S(=O)(=O)c2cccnc2)CC1)N1CCN(c2ccc(Cl)cc2)CC1,-14.2%
COc1ccccc1NC(=O)c1cc(OC)c(OC)cc1[N+](=O)[O-],11.8%
CC(=O)n1cc([C@H]2C=C(C(=O)Nc3ccccc3)O[C@@H](OCCCCO)C2)c2ccccc21,-13.0%
COCCN(C)Cc1nc(C(c2ccccc2)c2ccccc2)no1,?
O=C(CN1C(=O)NC2(CCOc3ccccc32)C1=O)Nc1ccc2c(c1)OCCO2 (stereo unspecified),-0.3%
Cc1nn(-c2ccccc2)c(C)c1NC(=O)c1ccc(S(=O)(=O)N2CCCC2)cc1,2.6%
COc1ccc(-n2nc(C(=O)N(C)c3cc(C)ccc3C)c3c4ccccc4n(C)c3c2=O)cc1Cl,1.2%
CC(C)OCCCNC(=O)CCCn1c(SCC(=O)c2ccc(F)cc2)nc2c(sc3ccccc32)c1=O,10.8%
Cc1cc(C=C2C(=O)c3ccccc3C2=O)c(C)n1-c1ccc(C(=O)O)cc1,-26.9%
COc1cc(/C=N\NC(=O)Cn2nnc3ccccc32)cc(OC)c1OC,15.0%
O=C1CC(NCc2ccccc2)C(=O)N1c1ccc(F)cc1 (stereo unspecified),8.6%
OC1(c2ccc(F)cc2)CCN(Cc2cccnc2)CC1,?
Cc1ccc(S(=O)(=O)NC(C(=O)Oc2ccc3c(C)c(Cl)c(=O)oc3c2)c2ccccc2)cc1 (stereo unspecified),?
Cc1noc(C)c1S(=O)(=O)Nc1ccc(C(=O)N2CCCCC2)cc1,-11.9%
COc1ccc(C(=O)NCc2ccon2)cc1OC1CCN(C(C)C)CC1,-1.3%
N#C/C(=C\c1c[nH]c2ccccc12)C(=O)NC1CC1,4.7%
CCc1ccc(OCc2nnc(SCC(=O)NCc3ccco3)o2)cc1,-5.5%
Cc1ccc(-c2c(CC(=O)O)c(C)nc3sc4c(c23)CCCC4)cc1,-0.5%
CCN1CCN(C(=O)c2nn(-c3ccc(OC)cc3)c(=O)c3c2c2ccccc2n3C)CC1,10.8%
Cc1[nH]c2c([N+](=O)[O-])cccc2c1C,3.8%
CC(C)NC(=O)C(Sc1ccccc1)c1ccccc1 (stereo unspecified),-24.6%
COCCNC(=O)CN1CCC(NC(=O)Nc2ccc(C(F)(F)F)cc2)CC1,6.0%
COc1ccc(CNC(=O)C(C)NC(=O)c2cc3ccccc3o2)cc1 (stereo unspecified),1.4%
COc1ccc(-c2noc(CNC(=O)CCCN3C(=O)[C@H]4CC=CC[C@H]4C3=O)n2)cc1,-12.0%
Cc1cc(C)c(C)c(N=Nc2nc3ccccc3n2C)c1C,-14.2%
O=C1c2ccccc2C(=O)N1C/C=C/c1ccccc1,-2.4%
CC(=O)c1cc(NC(=O)c2cccc(C(F)(F)F)c2)c(=O)oc1C,?
Cc1noc(NS(=O)(=O)c2ccc(NC(=O)c3cnc4scc(C)n4c3=O)cc2)c1C,-5.9%
Cc1ccc(S(=O)(=O)N(C)C)cc1NC(=O)COC(=O)CCC(=O)c1cccs1,-4.1%
Cc1c(-c2ccccc2)[n+](=O)c(-c2ccco2)c(C)n1[O-],-12.7%
Cc1ccc(C(=O)NCC(c2ccc3c(c2)OCO3)N2CCOCC2)cc1C (stereo unspecified),-5.6%
O=C(NCC(=O)N(Cc1ccco1)C(C(=O)NC1CCCC1)c1cccnc1)c1cccs1 (stereo unspecified),9.6%
Cc1ccc(NC(=O)Nc2cccc(C)n2)c(C)c1,9.0%
O=[N+]([O-])c1cccc(/C=N/Nc2nnc(-c3ccccc3)c(-c3ccccc3)n2)c1,-12.6%
Cc1cccc(NC(=S)NCc2ccccn2)c1,-9.6%
Cc1cc(C)nc(SCCC(=O)Nc2ccccc2C)n1,-29.1%
COC(=O)c1c(NC(=O)CCCC(=O)O)sc2c1CCCCC2,-24.7%
CCc1ccc2oc(-c3ccc(N)cc3)nc2c1,15.1%
Cc1nc(-c2ccccn2)nc(N2CCOCC2)c1Cl,-9.7%
CC(=O)Nc1ccc(Nc2nc3ccccc3n3cnnc23)cc1,-5.2%
CCCSc1nc(C)c(CC(=O)OCC)c(=O)[nH]1,-3.0%
